# High-throughput results from PubChem BioAssay.
# SARS PLpro yeast – inhibitors of SARS-CoV papain-like protease in yeast; S. cerevisiae expressing SARS-CoV PLpro, growth rescue; control for the full effect not named in the record; Potency, µM (doses to about 32.9 µM), for inactives: top-dose activity, positive = growth rescue; actives 0.19% (n = 330,000); AID 485353; note: 0% is about no effect; nearly all actives have a fitted effect of over 55% in size; growth read by luminescence after 48 h
# MARV entry inh – Marburg virus entry inhibition; Marburg virus pseudotyped entry inhibition, cell reporter; control for the full effect not named in the record; about a third of the inactives were read at about 46 µM; Potency, µM (series often up to 37.8 µM), for inactives: at the top dose activity change, negative = inhibition, most hits filed as inhibitors; actives 1.8% (n = 300,000); active = well fitted inhibition curve with a large enough effect; inconclusive = small, poorly fitted or top-dose-only effect, or effect the other way; inactive = flat fitted curve, though single readings scatter; tested in HEK293 cells; about a fifth of its hits are not listed in these tables; note: % is set by controls: 0 for no effect and ±100 for the full control effect; luciferase read-out
# 2A StopGo – lowers the luciferase signal of an FMDV 2A StopGo reporter; human cells with a luciferase reporter of 2A StopGo recoding; control for the full effect not named in the record; Potency, µM (highest dose often 57.9 µM), inactives show at the highest dose signal change, negative = less light; actives 1.2% (n = 410,000); AID 1159524; active = well fitted falling curve with a large enough effect; inconclusive = small, poorly fitted or top-dose-only effect; inactive = no such curve, though single readings can be large or run the other way; tested in HEK293T cells; note: % is set by controls: 0 for no effect and ±100 for the full control effect; nearly all actives have a fitted effect of over 45% in size; luciferase light after 4 h
# Lassa entry inh – blocks Lassa virus binding to or entry into cells; Potency, µM (highest dose often 37.9 µM), without a hit: at the top dose activity change, negative = inhibition, hits mostly inhibitors; Lassa virus pseudotype entry inhibition, cell reporter; control for the full effect not named in the record; actives 1.2% (n = 300,000); active means well fitted inhibition curve with a large enough effect; inconclusive means small, poorly fitted or top-dose-only effect, or effect the other way; inactive means flat fitted curve, though single readings scatter; tested in HEK293 cells; note: % is set by controls: 0 for no effect and ±100 for the full control effect; nearly all actives have a fitted effect of over 50% in size; luciferase read-out
# Cruzain inh Det – inhibitors of Trypanosoma cruzi cruzain with detergent; P25779; Potency, µM, for the others: max response, negative = inhibition, most hits filed as inhibitors; purified cruzain, Z-FR-AMC fluorescence, 0.01% Triton; actives 0.43% (n = 200,000); active = well fitted curve in the direction sought with a large enough effect; inconclusive = small, poorly fitted or top-dose-only effect, or another doubt; inactive = no such curve, though single readings can be large; an effect the other way counts as inactive or inconclusive;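 note: plate controls were neutral wells for no effect and buffer without enzyme for full effect; nearly all actives have a fitted effect of over 40% in size; top concentration of the series not given in the record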
# Target sequence (P25779 123-467 limits assumed): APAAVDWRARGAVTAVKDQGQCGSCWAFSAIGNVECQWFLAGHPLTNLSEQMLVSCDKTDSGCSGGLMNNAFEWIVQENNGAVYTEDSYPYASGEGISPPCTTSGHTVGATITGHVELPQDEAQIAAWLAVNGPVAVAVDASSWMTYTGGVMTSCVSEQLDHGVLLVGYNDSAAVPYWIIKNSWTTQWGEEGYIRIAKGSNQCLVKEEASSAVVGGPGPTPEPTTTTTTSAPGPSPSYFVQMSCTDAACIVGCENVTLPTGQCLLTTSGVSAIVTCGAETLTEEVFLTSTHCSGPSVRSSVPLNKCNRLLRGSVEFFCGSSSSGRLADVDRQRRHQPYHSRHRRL
#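 Cysteine protease activity tested under reducing, mildly acidic conditions (100 mM sodium acetate pH 5.5, 5 mM DTT) plus 0.01% Triton X-100. Cruzain 1.5 nM; substrate Z-FR-AMC 2 uM; 15 min compound preincubation at room temperature.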
# Cruzain inh noDet – inhibitors of Trypanosoma cruzi cruzain without detergent | actives 2.3% (n = 200,000) | Potency, µM, for inactives: max response, negative = inhibition, hits mostly inhibitors | purified cruzain, Z-FR-AMC fluorescence, no detergent | AID 1476; active = well fitted curve in the direction sought with a large enough effect; inconclusive = small, poorly fitted or top-dose-only effect, or another doubt; inactive = no such curve, though single readings can be large; an effect the other way counts as inactive or inconclusive;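 note: plate controls were enzyme without inhibitor for no effect and buffer without enzyme for full effect; nearly all actives have a fitted effect of over 40% in size; top concentration of the series not given in the record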
#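 Purified cruzain at 1.5 nM, pre-incubated 15 min with compound at room temperature in 100 mM sodium acetate pH 5.5, 5 mM DTT, 0.00005% Triton X-100. Reaction started with 2 uM Z-FR-AMC; AMC fluorescence increase over 60 s gives rate.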
# NS1 inh – inhibitors of influenza NS1 protein function. S. cerevisiae slowed by influenza A NS1, growth recovery by OD600. Potency, µM (doses to about 46.1 µM), inactives show at the top dose activity, positive = more growth. actives 0.4% (n = 270,000). AID 2326; note: actives are rising curves; nearly all actives have a fitted effect of over 50% in size
#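 Read-out: OD600 growth recovery of NS1-expressing budding yeast. Cells grown overnight at 30C in -URA glucose medium, washed, resuspended and diluted 1:100 in 2% galactose assay medium, pH 6.0. Same strain lacking NS1 served as positive control.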
# RE007 growth inh – less growth of the S. pombe RE007 Vpr strain. actives 0.21% (n = 360,000). S. pombe RE007 Vpr strain, BacTiter-Glo ATP luminescence, 24 h; control for the full effect not named in the record. Potency, µM (highest dose often 92.2 µM), without a hit: top-dose activity change, negative = less growth. AID 651644; active = well fitted falling curve with a large enough effect; inconclusive = small, poorly fitted or top-dose-only effect; inactive = no such curve, though single readings can be large or run the other way;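 note: % is set by controls: 0 for no effect and ±100 for the full control effect; nearly all actives have a fitted effect of over 50% in size; the assay follows cell death caused by Vpr and the record does not say whether a fall means rescue or toxicity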
#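 Fission yeast strain RE007, carrying one chromosomally integrated HIV-1 vpr copy, was seeded at OD 0.01 in PMG+AL medium with 23 nL pinned compound. After 24 h at 30 °C and 99% humidity, viability was read by BacTiter-Glo luminescence.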
# Numbers without * were called inactive; ? = inconclusive; . = no result given; [ ] = dose if it differs, or a comment. Unless noted, calls come from the whole dose curve; as a rule, active means well fitted rising curve with a large enough effect; inconclusive means small, poorly fitted or top-dose-only effect; inactive means no such curve, though single readings can be large or run the other way. Potency is the fitted concentration of half-maximal effect.
SMILES,SARS PLpro yeast,MARV entry inh,2A StopGo,Lassa entry inh,Cruzain inh Det,Cruzain inh noDet,NS1 inh,RE007 growth inh
O=C(O)CC(c1cccc([N+](=O)[O-])c1)N1Cc2ccccc2C1=O (stereo unspecified),0%,-12%[46.1 µM],0%,2%[46.1 µM],.,.,2%,3%
O=C(Nc1cccc2ccccc12)N1CCC2(CC1)OCCO2,0%,.,51%[activator],.,.,.,1%,-23%
CCOc1ccccc1NC(=O)NCCC1=CCCCC1,-2%,?,-3%,?,.,.,-40%,3%
Cc1ccc(S(=O)(=O)c2cc3c(=O)n4cc(C)ccc4nc3n(CC3CCCO3)c2=N)cc1 (stereo unspecified),-1%,.,.,.,4.0%,16%,-34%,.
COc1ccc(Br)cc1/C=C/C(=O)Nc1c(C)cccc1C,2%,?,-7%,-19%,2.9%,?,1%,0%
COc1cc(/C=C/C(=O)O)cc(S(=O)(=O)Nc2ccccc2C(=O)NCCc2ccccc2)c1OC,13%,16%[46.1 µM],5%,26%[46.1 µM],.,.,2%,4%
CC(C)(C)n1nnnc1C(c1ccc(C(F)(F)F)cc1)N(Cc1ccc(F)cc1)Cc1ccco1 (stereo unspecified),-20%,?,?,?,-4.8%,-27%,-6%,-3%
CC1CCCCC1NC(=O)CCCCCn1c(=S)[nH]c2ccccc2c1=O (stereo unspecified),-2%,4%[46.1 µM],-6%,-30%[46.1 µM],.,.,.,-1%
COC(=O)CN1C(=O)CC(C)(C)Sc2ccccc21,-2%,3%,-4%,4%,0.0%,4%,1%,-5%
O=C1c2cccc3cccc(c23)C(=O)C1(O)O,.,?,22µM*,-24%,.,.,.,4%
COc1ccc(Nc2cc3n(c(=O)n2)CCc2cc(OC)c(OC)cc2-3)cc1,1%,-8%,9%,?,.,.,8%,-1%
Cc1ccc(-c2nnc(Nc3ccccc3O)c3ccccc23)cc1,.,.,-9%,-12%[46.1 µM],-3.4%,-14%,.,.
COc1ccc(Cc2n[nH]c(=S)n2-c2ccc3c(c2)OCCO3)cc1,-1%,.,6%,.,.,.,-3%,11%
CCCN(C(=O)c1cc2c(Cl)nc3ccccc3c2s1)c1cccc(C)c1,.,-3%[46.1 µM],?,2%[46.1 µM],-0.6%,7%,.,.
CCCN(CC1CC1)CC(O)c1ccccc1 (stereo unspecified),-2%,?,6%,-29%,.,.,6%,9%
Nc1ccc(-c2cnc(-c3ccc(N)cc3)nc2)cc1,6%,?,-42%,?,0.4%,-5%,1%,-22%
O=[N+]([O-])c1ccc(Oc2ccc(C(F)(F)F)cn2)cc1,-1%,-24%[46.1 µM],-12%,-11%,.,.,0%,3%
Cc1ccc(NC(=O)C(=O)NCCc2c[nH]c3ccccc23)cc1C,1%,-5%[46.1 µM],-2%,-6%,.,.,5%,-17%
O=C(CN1C(=O)NC2(CCOc3ccccc32)C1=O)c1ccc[nH]1 (stereo unspecified),-9%,-1%,-1%,20%,.,.,.,-10%
COc1ccc(OCc2nnc(SCC(N)=O)n2N)cc1,8%,18%,-15%,-15%,7.2%,3%,19%,5%
Cc1ccc2nc(-c3ccccn3)c(Nc3ccc(F)cc3)n2c1,.,?,?,?,-2.8%,-9%,.,.
COc1cc(NC(=S)N2CCN(c3ccccn3)CC2)c(OC)cc1Cl,0%,-11%,-14%,1%,-1.8%,17%,21%,.
O=C(COC(=O)c1ccc(O)cc1)Nc1ccc(OC(F)F)cc1,0%,-2%[46.1 µM],6%,-8%[46.1 µM],.,.,.,3%
C/C(=C\C(=O)OCC(=O)NCc1ccccc1)C(=O)OCC(=O)NCc1ccccc1,10%,?,-20%,6%,2.3%,8%,16%,2%
CC(C(=O)NCCc1ccc(F)cc1)N1CCN(Cc2ccccc2)CC1 (stereo unspecified),-1%,?,-5%,6%,.,.,.,10%
# Remaining list, next part
SMILES,SARS PLpro yeast,MARV entry inh,2A StopGo,Lassa entry inh,Cruzain inh Det,Cruzain inh noDet,NS1 inh,RE007 growth inh
Cc1ccc(-c2nc(NC(=O)CSc3nnnn3-c3ccccc3)ns2)cc1,1%,6%,-15%,-6%,-1.4%,?,-8%,-1%
O=S(=O)(Oc1ccccc1/C=N/n1cnnc1)c1ccccc1,0%,-2%[46.1 µM],-13%,3%,.,.,-3%,28%
Cc1ccc2ncnc(NCCC(=O)O)c2c1,-20%,-10%,11%,22%,-3.3%,-7%,-2%,-25%
COC(=O)c1cc2c(ccn2-c2ccc(F)cc2)n1Cc1ccc(OC)cc1,-15%,2%,19%,-3%,-2.7%,?,8%,-5%
COc1ccc(N(CC(=O)NCCSc2ccccc2)S(=O)(=O)c2ccccc2)cc1OC,1%,.,-36%,.,.,.,0%,-10%
CCCNc1oc(-c2cccc3ccccc23)nc1C#N,-1%,15%,57%[activator],9%,?,3.2µM*,4%,-10%
CCc1ccc(NC(=O)/C(C#N)=C/c2ccncc2)cc1,-1%,.,?,.,.,.,6%,15%
Cc1nc2oc3c(NCc4ccccc4)ncnc3c2c2c1COC(C)(C)C2,12%,-15%,-25%,3%,-7.1%,?,-50%,0%[3.69 µM]
CSc1ccc(/C=C/C(=O)NC(=O)c2ccccc2O)cc1,-6%,.,2%,.,.,.,-39%,-17%
Cc1ccc2c(c1)C(c1ccc(F)cc1)N(C(=O)c1cc3ccccc3oc1=O)CC(=O)N2 (stereo unspecified),21%,-3%,30%,-17%,-2.1%,-6%,5%,1%
Cc1cccc(NC(=O)C2CCCN2S(=O)(=O)c2cccc3nsnc23)c1C (stereo unspecified),.,17%[46.1 µM],-18%,7%[46.1 µM],0.0%,12%,.,.
CCOC(=O)Cc1nnc(Nc2cccc(O)c2)c2ccccc12,13%,21%,-3%,3%,-0.9%,5%,9%,7%
CC1CCN(CCCNC(=O)c2cn(C)c3ccc(S(=O)(=O)N(C)C4CCCCC4)cc3c2=O)CC1,.,12%[46.1 µM],1%,14%[46.1 µM],-0.1%,10%,.,.
Cc1ccc2oc(C(=O)NC3CCS(=O)(=O)C3)cc(=O)c2c1 (stereo unspecified),1%,.,-6%,.,.,.,-8%,-5%
Cn1c(SCC(=O)N2CCOCC2)nc2cccnc21,1%,?,0%,3%,0.6%,7%,-5%,24%
C=Cc1ccc(CN2C(=O)N(c3cccc(Cl)c3)S(=O)(=O)c3ccccc32)cc1,.,.,-11%,-7%[46.1 µM],1.7%,?,.,.
CCOC(=O)C1CCN(C(=O)c2cccs2)CC1,0%,.,6%,.,.,.,2%,8%
O=C(c1ccco1)N1N=C(c2ccc(Cl)cc2)CC1(O)C(F)(F)F (stereo unspecified),-5%,?,-16%,-14%[46.1 µM],.,.,7%,11%
O=C(c1cc(COc2ccc(F)cc2Cl)on1)N1CCSCC1,-3%,?,21%,-5%[46.1 µM],.,.,-45%,-16%
CC(=O)NC(CC(=O)OCC(=O)N1CCN(S(=O)(=O)c2ccc(Cl)cc2)CC1)c1ccccc1 (stereo unspecified),0%,?,-24%,-17%,.,.,.,10%
CCN(CC(=O)NCc1ccncc1)S(=O)(=O)c1ccc(OC)cc1,-9%,1%[46.1 µM],23%,10%[46.1 µM],.,.,3%,17%
CCOc1ccccc1CNC(=O)CCNS(=O)(=O)c1ccc2[nH]c(=O)oc2c1,3%,.,-21%,.,.,.,-3%,8%
Cc1c(Cl)cccc1N1C(=O)CC(N(O)c2ccccc2)C1=O (stereo unspecified),0%,12%,-2%,-1%,0.5%,-5%,-2%,-6%
O=C(Cc1ccccc1)N1CCN(C2CCCCCC2)CC1,-1%,-9%,2%,-10%[46.1 µM],.,.,4%,-20%
COc1ccc(/C=C/c2nnc(NC(=O)C(C)C)s2)cc1,0%,0%[46.1 µM],10%,?,.,.,12%,7%
# (further entries)
SMILES,SARS PLpro yeast,MARV entry inh,2A StopGo,Lassa entry inh,Cruzain inh Det,Cruzain inh noDet,NS1 inh,RE007 growth inh
COc1ccc(C(=O)Nc2cccc(N(C)S(C)(=O)=O)c2)cc1OC,-6%,2%,.,4%,6.8%,-2%,7%[9.22 µM],5%
Cc1ccc(OCC(=O)OCc2cc(=O)n3nc(C4CCCCC4)sc3n2)cc1C,.,.,-3%,1%[46.1 µM],-5.0%,-2%,.,.
Cc1cc(C)n(-c2nc3ccccc3c(=O)n2OCC(=O)Nc2c(C)cccc2C)n1,-3%,?,-9%,0%,1.0%,-8%,-8%,6%
CCCCCCCCCC(=O)Nn1cnc2ccccc2c1=O,0%,.,12%,.,.,.,0%,1%
COCCNC(=O)CSc1ccccc1C(=O)NCC1CCCCC1,0%,7%[46.1 µM],-8%,9%[46.1 µM],.,.,.,5%
Cc1c(NC(=O)CSCc2ccccc2)cccc1C(=O)O,6%,.,43%[activator],.,.,.,-21%,2%
O=C1NC(=O)N(Cc2ccccc2)C(=O)/C1=C\N1CCCc2ccccc21,?,15%,?,1%,-0.4%,-7%,?,-6%
COc1ccccc1N1CCN(C(=O)Cn2nnc(-c3cccs3)n2)CC1,0%,-1%,.,5%,4.1%,-6%,0%,1%
CC1=NN(C(=O)Cn2nc([N+](=O)[O-])cc2C)C(O)(C(F)(F)F)C1 (stereo unspecified),-2%,-22%,-12%,?,-1.7%,1%,-2%,-8%
O=C(OCc1cc(=O)n2nc(C3CCCCC3)sc2n1)c1ccccc1Cl,.,.,36%[activator],5%[46.1 µM],-0.9%,3%,.,.
O=C(COC(=O)c1cn(-c2ccccc2)nc1-c1ccc(F)cc1)Nc1ncc(Cl)cc1Cl,20%,?,11%,-14%,-4.1%,?,5%,3%
CCCC(c1nnnn1CCc1ccccc1)N1CCC(C(N)=O)CC1 (stereo unspecified),0%,?,20%,13%,1.1%,-1%,2%,-7%
O=C(COC(=O)CN1C(=O)C2CCCCC2C1=O)Nc1cc(F)ccc1F (stereo unspecified),-6%,6%,-9%,-4%,.,.,.,-25%
COc1ccc(CCNC(=O)NS(=O)(=O)c2ccc(C)cc2)cc1OC,1%,-12%,27%,?,.,.,1%,-4%
CN(Cc1ccco1)C(=O)c1ccc(OC2CCN(Cc3ccccn3)CC2)cc1,-5%,.,-16%,.,.,.,-2%,0%
CN(C1CCCCC1)S(=O)(=O)c1ccc(S(=O)(=O)N2CCN(C(=O)c3ccccc3F)CC2)cc1,2%,?,?,?,-0.8%,?,-6%,2%
COc1cccc(CN(C)C(=O)C2CCN(S(=O)(=O)c3ccc(C)cc3)CC2)c1OC,1%,?,-16%,?,.,.,.,-2%
CCOC(=O)N1CCN(C(=O)CS(=O)(=O)c2cn(Cc3ccc(Cl)cc3)c3ccccc23)CC1,6%,.,?,.,-3.3%,?,7%,5%
O=C(COC(=O)c1ccc(Cl)c([N+](=O)[O-])c1)NC1CCCC1,1%,.,-10%,.,.,.,-1%,-3%
